Screens: PubChem BioAssay, National Center for Advancing Translational Sciences (NCATS)
CtBP-E1A inh = blocks the CtBP interaction with E1A. AlphaScreen GST-E1A/His-CtBP binding, 1536-well; active compounds read low; control for the full effect not named in the record. activity change, % (concentration not given with the values). actives 0.49% (n = 340,000); in the data active means activity change below about -65%; inconclusive means about -30% to -65%; inactive means above about -30%; further: on the % scale 0 is the no-effect control and ±100 the full control effect
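AlphaScreen with 125 nM GST-E1A and 125 nM His-CtBP (5X stocks) in Tris pH 8.0, 300 mM NaCl, BSA, Tween 20, TCEP. Compounds preincubated 2 h at 37 deg C, then glutathione donor/nickel acceptor beads added for 1 h at 37 deg C in dark.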
ClpP mod = qHTS Assay for Activators of ClpP | Potency, µM (highest dose often 57.5 µM), inactives show at the highest dose activity change, negative = active | actives 1.9% (n = 340,000) | purified B. subtilis ClpP, FRET peptide cleavage, 20 min | ATP-dependent Clp protease proteolytic subunit (Bacillus subtilis (strain 168)), P80244; active = well fitted falling curve with a large enough effect; inconclusive = small, poorly fitted or top-dose-only effect; inactive = no such curve, though single readings can be large or run the other way; further: potency means the concentration at half of the fitted maximal effect; the source files actives as falling curves though it sought activators and does not explain the sign; nearly all actives have a fitted effect of over 65% in size; many hits overshoot -100%
Target sequence (P80244 whole entry, looked up): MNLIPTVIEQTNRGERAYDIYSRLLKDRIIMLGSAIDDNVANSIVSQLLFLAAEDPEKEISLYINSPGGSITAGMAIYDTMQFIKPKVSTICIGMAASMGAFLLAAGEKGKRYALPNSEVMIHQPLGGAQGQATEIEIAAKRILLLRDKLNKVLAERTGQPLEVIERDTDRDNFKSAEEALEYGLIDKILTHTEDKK
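Buffer: 100 mM Tris/HCl pH8, 100 mM KCl, 0.05% low protease BSA, 2.5% glycerol, 0.01% Tween-20. ClpP 10 microg/mL final; 20 min RT; delta FRET normalized to ADEP and DMSO controls.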
Menin-MLL FL inh = displaces fluorescein MLL peptide from human menin; Fluorescence polarization, fluorescein-MLL peptide displacement from menin; FP activity change, % at 61.4 µM; 290,000 tested, under 10 active; inconclusive = falling polarisation curve, or a change in total fluorescence; inactive = total fluorescence flat and polarisation flat or rising; no compound was filed as active; the % refers to the polarisation; negative = inhibition;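 further: % of control where 0% means no effect; inhibitors lower the polarisation; unlabelled MLL peptide was the positive control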
gsp agonist = agonists of gsp mutant (McCune-Albright syndrome); gsp mutant cells, cAMP HTRF, 30 min; control for the full effect not named in the record; Potency, µM (series often up to 76.9 µM), without a hit: at the top dose activation (cAMP increase), usual class: activators; actives 0.13% (n = 340,000); AID 624287; active = well fitted activation curve with a large enough effect; inconclusive = small, poorly fitted or top-dose-only effect, or another doubt; inactive = no such curve, though single readings can be large or run the other way; cell line not stated here;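 further: phosphodiesterase inhibitor Ro 20-1724 added with compounds to block cAMP breakdown; potency means the concentration at half of the fitted maximal effect; nearly all actives have a fitted effect of over 60% in size; about a fifth of the inactives were tested at one dose only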
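Cells in DMEM/10% FBS with G418 were pretreated with compounds in DMSO plus […] (300 uM stock) for 30 min at 37C. cAMP was measured by HTRF (cAMP-d2 plus anti-cAMP antibody-K) after 30 min at room temperature.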
gsp antagonist = gsp mutant antagonism; gsp-mutant cells, cAMP HTRF, 30 min; control for the full effect not named in the record; actives 0.4% (n = 340,000); AID 624288; Potency, µM (top dose mostly 76.9 µM), for the others: at the highest dose activity change, negative = inhibition, most hits filed as inhibitors; active = falling curve of any shape with a large fitted effect; inconclusive = falling curve, mostly with a smaller effect; inactive = flat or rising curve; cell line not stated here;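 further: intracellular cAMP measured with PDE inhibitor Ro 20-1724 present during compound exposure; potency means the concentration at half of the fitted maximal effect; on the % scale 0 is the no-effect control and ±100 the full control effect; nearly all actives have a fitted effect of over 65% in size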
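Measurement of cellular cAMP by homogeneous time-resolved fluorescence following a 30 min compound exposure at 37C. The PDE inhibitor […] was present throughout; the assay buffer was DPBS with 0.05% BSA and 0.005% Tween 20.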
Sfp PPTase inh = inhibitors of Bacillus subtilis Sfp phosphopantetheinyl transferase; Q9F4F7; Biochemical Sfp PPTase activity, qHTS; Potency, µM, without a hit: max response, negative = inhibition, actives largely listed as inhibitors; actives 3.5% (n = 310,000); active means well fitted inhibition curve with a large enough effect; inconclusive means small, poorly fitted or top-dose-only effect, or another doubt; inactive means no such curve, though single readings can be large or run the other way;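 further: the enzyme is Sfp with the accession as filed and its product quenches rhodamine fluorescence; potency means the concentration at half of the fitted maximal effect; 0% = enzyme reaction without inhibitor and -100% = no enzyme wells; top concentration of the series not given in the record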
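Compounds were incubated with enzyme (final 15 nM) for 15 min at room temperature before substrate addition started the reaction. Fluorescence at 525 nm excitation, 598 nm emission was recorded immediately and after 30 minutes.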
TRPV1 potentiator = enhances activation of the human vanilloid receptor TRPV1; Q8NER1; TRPV1-expressing cells, Fluo-8 calcium influx, capsaicin EC20 potentiation; host cell line not named in the record; control for the full effect not named in the record; potentiation, % at 8.33 µM; actives 0.02% (n = 320,000); AID 540277; active means potentiation above 80%; inconclusive means 30% to 80%; inactive means below 30%; further: 0% is about no effect
Target sequence (Q8NER1 whole entry, looked up): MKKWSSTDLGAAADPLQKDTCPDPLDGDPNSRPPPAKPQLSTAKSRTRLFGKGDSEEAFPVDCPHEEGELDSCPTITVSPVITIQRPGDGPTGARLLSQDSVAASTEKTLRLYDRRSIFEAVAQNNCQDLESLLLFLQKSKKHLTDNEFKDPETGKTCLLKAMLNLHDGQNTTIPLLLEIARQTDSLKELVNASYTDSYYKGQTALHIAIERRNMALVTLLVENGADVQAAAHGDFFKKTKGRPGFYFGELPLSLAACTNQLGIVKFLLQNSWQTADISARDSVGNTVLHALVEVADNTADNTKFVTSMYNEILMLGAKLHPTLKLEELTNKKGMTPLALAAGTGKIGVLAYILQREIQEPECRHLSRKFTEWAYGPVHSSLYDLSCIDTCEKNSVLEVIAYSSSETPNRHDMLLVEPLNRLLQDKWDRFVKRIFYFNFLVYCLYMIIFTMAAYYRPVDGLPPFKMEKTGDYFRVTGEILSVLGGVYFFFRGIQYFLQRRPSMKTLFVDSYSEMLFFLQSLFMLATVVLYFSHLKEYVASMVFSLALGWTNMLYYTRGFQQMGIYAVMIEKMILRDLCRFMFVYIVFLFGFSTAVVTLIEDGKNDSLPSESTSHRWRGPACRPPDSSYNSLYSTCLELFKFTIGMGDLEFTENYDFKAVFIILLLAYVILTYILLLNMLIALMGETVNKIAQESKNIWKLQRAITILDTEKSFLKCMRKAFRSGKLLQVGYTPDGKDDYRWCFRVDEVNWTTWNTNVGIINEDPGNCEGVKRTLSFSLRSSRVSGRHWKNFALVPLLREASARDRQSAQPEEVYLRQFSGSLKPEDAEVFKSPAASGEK
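TRPV1-expressing cells were cultured overnight at 35.5C and loaded with Fluo-8 calcium dye for 40 to 90 min at room temperature. After a 10 s baseline, compound was added and calcium influx was read kinetically for 3 min (ex 480/em 520 nm).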
* = called active by the depositor; u = inconclusive; x = no result given; [ ] = dose if it differs, or a comment.

smiles | CtBP-E1A inh | ClpP mod | Menin-MLL FL inh | gsp agonist | gsp antagonist | Sfp PPTase inh | TRPV1 potentiator
C=C(C)CNC(=O)C1CCC(=O)N(CCCc2ccccc2)C1 (stereo not drawn) | 7 | -1.5% | x | -36% | 5% | x | x
CC(=O)Nc1nonc1-c1nc2ccccc2n1CCC(C)C | 10 | u | 7.1 | -25% | u | -5% | -22
O=C(c1ccc(Oc2ccccc2)cc1)c1nc2c(n1O)CCCC2 | -16 | 2.1% | 0.3 | 3% | -23% | 13% | -21
O=C(Cn1cnc2ccccc2c1=O)OCCCCN1C(=O)c2ccccc2C1=O | -1 | -1.6% | 0.9 | 39% | -23% | 5% | 3
CC1CC(=O)N(CC(=O)Nc2ccccc2F)c2ccccc2S1(=O)=O (stereo not drawn) | 2 | -1.0% | -1.2 | u | 15% | 9% | -6
O=C(CSc1ccc2ccccc2c1)N1CCN(c2ccc(O)cc2)CC1 | -11 | -1.0% | -2.6 | u | -2% | 50µM* | 10
O=C(COC(=O)/C=C/c1ccco1)NCCc1ccccc1 | 4 | 1.4% | -0.1 | -9%[15.4 µM] | 1% | -10% | -6
CC(=O)Nc1ccc(S(=O)(=O)N/N=C/c2ccc(C)s2)cc1 | 1 | -1.8% | -4.3 | u | -1% | -34% | -16
O=C(NC1CCN(C(=S)Nc2ccc(Cl)cc2)CC1)c1ccco1 | -11 | x | x | -22% | 1% | 8% | 3
Cc1nnc2c3ccccc3c(-c3ccc(O)cc3)nn12 | -7 | 2.0% | 3.2 | u | 7% | 25% | -1
O=C(C1CCCN(S(=O)(=O)Cc2ccccc2)C1)N1CCCCC1 (stereo not drawn) | -2 | -2.3% | 4.9 | 16% | 2% | -1% | -4
CCCn1c(C)cc(C(=O)COc2ccc(-c3nnco3)cc2)c1C | -16 | x | -2.0 | -19%[15.4 µM] | x | 6% | -12
CC(=O)Nc1c(O)nc(SCc2ccccc2C#N)[nH]c1=O | 10 | -0.2% | 8.5 | u | u | 2% | 2
CCC(C)NC(=O)C1CCN(S(=O)(=O)c2cccc3nonc23)CC1 (stereo not drawn) | 12 | x | 3.0 | u | -10% | 27% | 10
Cc1ccc(S(=O)(=O)CCC(=O)Nc2cccc(Cl)c2)cc1 | 3 | -1.6% | 5.2 | 7% | -2% | 2% | 6
CC(=O)N1CCOc2ccc(S(=O)(=O)NCc3ccc(Cl)cc3)cc21 | -16 | -2.8% | 0.1 | u | 11% | 10% | -7
COc1ccccc1-c1cc(C(F)(F)F)n2ncc(C(=O)N3CCc4ccccc4C3)c2n1 | 7 | -8.7% | 3.1 | 8%[15.4 µM] | u | -4% | -11
Cc1ccc(NCc2nnc(SCC(=O)O)n2-c2ccc(C)cc2)cc1 | -3 | x | 3.7 | -6%[15.4 µM] | 6% | -4% | -20
Cc1ccc(Oc2ccc(C(=O)NCc3ccncc3)cc2)cc1 | -2 | x | -6.1 | -9%[15.4 µM] | -1% | 6% | -4
N#Cc1cccc2cnccc12 | 0 | -1.3% | 1.4 | -12%[15.4 µM] | 7% | -12% | 4
Cc1ccccc1S(=O)(=O)N1C[C@H]2CON(C)[C@H]2C[C@H]1c1cccc(Oc2ccccc2)c1 | -13 | 1.7% | x | x | -11% | x | x
COc1ccc(CCN2C(=O)CSC2c2ccc(F)cc2)cc1 (stereo not drawn) | 5 | -0.9% | 6.1 | 0% | -1% | 9% | -2
CCCNC(=O)NC(=O)COC(=O)c1cccc(NS(=O)(=O)c2ccc(F)c(F)c2)c1 | -7 | 1.7% | 0.6 | u | -12% | 11% | 3
Cc1cc(OC(C)C(=O)NCCCN2CCOCC2)ccc1Cl (stereo not drawn) | 0 | 2.5% | 1.3 | 7% | -1% | 8% | 0
O=C(OCn1nnc2ccccc2c1=O)C1CCCCC1 | 12 | -0.9% | -1.2 | -18% | -3% | -13% | -11
CCc1ccccc1N(CC(=O)NCCSCc1ccco1)S(C)(=O)=O | -1 | -2.5% | 0.3 | -38%[inhibitor] | -10% | 18µM* | 0
CC1(C)Oc2ccc(NC(=O)c3ccco3)cc2O1 | -2 | -1.7% | -0.8 | 20% | -1% | 10% | -17
Cc1ccc(CNC(=O)C2CCN(S(=O)(=O)c3cccnc3)CC2)cc1 | x | 1.7% | x | u | 5% | 0% | 6
Cc1cc2c(cc1C)NC(c1c(C)n(C)n(-c3ccccc3)c1=O)C1=C(CC(C)(C)CC1=O)N2 (stereo not drawn) | 24 | -3.3% | u | -11% | 18% | -1% | -30
N#CCCN1CCN(C(=S)c2ccc(-c3cccc(Cl)c3)o2)CC1 | u | -1.1% | -0.7 | 21% | -1% | 45µM* | 6
Cc1cc(-n2cccn2)ccc1CN1CCN(CC(C)C)C(CCO)C1 (stereo not drawn) | -9 | -3.4% | 0.8 | 3% | 9% | 16% | u
CCN(CC)c1ccc(S(=O)(=O)N(CC)CC)cc1NC(=O)c1cccnc1 | -9 | x | 1.6 | 12%[15.4 µM] | 8% | 13% | -3
CCOC(=O)N1CCC(=NNC(=O)COc2ccc(OC)cc2)CC1 | -5 | -0.8% | -1.5 | -55%[inhibitor] | -6% | -3% | u
CCCCNC(=O)C1c2ccccc2Oc2ccccc21 | -4 | -0.9% | 2.4 | -11% | 4% | 1% | -1
COc1cc(=O)n2c(-c3ccccc3)csc2n1 | -3 | -0.3% | 1.3 | 9% | -1% | 3% | 4
CNC(=O)c1sc(NCc2ccccc2OC)nc1C | 1 | x | 0.5 | 20%[15.4 µM] | -36% | -20% | -18
CCOC(=O)N1CCN(C(=O)c2cnn3c(C(F)F)cc(-c4ccc(C)cc4)nc23)CC1 | 8 | -21% | -0.6 | 24% | -7% | -1% | -13
COc1cc(C(=O)Nc2ccc(C)cc2)c2ccccc2n1 | 20 | x | -0.6 | -11%[15.4 µM] | 20% | 4% | -7
CC(C)OC(=O)c1ccc(COc2ccc3ccc(=O)oc3c2)o1 | -3 | 0.5% | 0.1 | -16%[15.4 µM] | 0% | 13% | u
CC(C)CCNC(=O)CCc1nnc2ccc(N3CCC(C)CC3)nn12 | x | -1.9% | 2.6 | 6% | -4% | -1% | 12
O=C(CCCn1c(=O)[nH]c2ccsc2c1=O)N1CCN(c2ccccn2)CC1 | 4 | u | 1.6 | u | -1% | 8% | 2
CCOc1ccccc1NC(=O)CCn1c(=O)oc2ccccc21 | -3 | 0.8% | 1.7 | u | 5% | -4% | x
CC(C)(C)CNC(=O)c1ccc2c(c1)S(=O)(=O)c1cc(Cl)ccc1C2=O | -1 | 0.1% | x | 8% | -11% | x | 0
CCNc1nc(NCC)n2c(SCC(=O)Nc3ccc(OC(F)F)cc3)nnc2n1 | 1 | 0.6% | x | -16% | 8% | x | -6
Cc1ccc(OCC(=O)OCCN2C(=O)c3ccccc3C2=O)cc1C | 17 | 0.4% | 0.6 | -40%[inhibitor] | 0% | 11% | -2
COc1ccc(NC(=O)C(=O)N/N=C\c2ccc(CNC(=O)C(=O)Nc3ccc(C)c(C)c3)o2)c(OC)c1 | 4 | x | 17 | 22% | -1% | 2% | 0
O=C(c1ccco1)N1CCC(c2ccccc2)C1 (stereo not drawn) | 10 | -0.8% | -4.4 | u | 0% | 4% | -11
Cc1cccc(C(=O)OCC(=O)N2CCN(C(=O)c3ccco3)CC2)c1O | 7 | x | x | -2% | -3% | x | x
COC(=O)c1ccc(/C=N/n2cnnc2)cc1 | 10 | 0.9% | 1.0 | u | 1% | 9% | -10
Cn1c(SCC(=O)NCc2ccco2)nnc1-c1cccs1 | 5 | -1.3% | -1.1 | -13% | 11% | u | 11

Record cards, from the list above.
O=C(c1ccco1)N1CCC(c2ccccc2)C1 (stereo not drawn) as listed: CtBP-E1A inh: 10; ClpP mod: -0.8%; Menin-MLL FL inh: -4.4; gsp agonist: u; gsp antagonist: 0%; Sfp PPTase inh: 4%; TRPV1 potentiator: -11
O=C(CCCn1c(=O)[nH]c2ccsc2c1=O)N1CCN(c2ccccn2)CC1 as listed: CtBP-E1A inh: 4; ClpP mod: u; Menin-MLL FL inh: 1.6; gsp agonist: u; gsp antagonist: -1%; Sfp PPTase inh: 8%; TRPV1 potentiator: 2

Next section:
smiles | CtBP-E1A inh | ClpP mod | Menin-MLL FL inh | gsp agonist | gsp antagonist | Sfp PPTase inh | TRPV1 potentiator
O=C(O)c1cccc([N+](=O)[O-])c1C(=O)Nc1nc2ccccc2s1 | x | 1.5% | 0.5 | u | 13% | 1% | -3
CCCC(=O)Nc1ccc2oc(-c3cccnc3)nc2c1 | 19 | 16µM* | 0.3 | 3% | 3% | 22% | 9
CCC1CCCCN1CCCNC(=O)c1ccc2c(c1)c(C)c(C)n2C (stereo not drawn) | -18 | -7.7% | 3.2 | -15% | 8% | 3% | -7
COc1ccc(OC)c(C(c2nnnn2Cc2ccccc2)N2CCN(C)CC2)c1 (stereo not drawn) | -7 | -0.5% | 0.4 | 18% | 8% | 14% | 17
Cc1ccc(NC(=O)CNC(=O)c2ccc3c(c2)OCO3)nc1 | 1 | -18% | 2.0 | 13% | -1% | 15% | -3
CCOC(=O)c1c(NC(=O)COC(=O)Cn2cnc3c2c(=O)n(C)c(=O)n3C)sc(C)c1CC | 0 | 29% | x | -18% | -33% | x | 19
Cc1cccc(NC(=S)N2CCC(N(C)CC3CCCO3)CC2)c1 (stereo not drawn) | -1 | x | 0.3 | 15%[15.4 µM] | 4% | 21% | 20
O=S(=O)(Nc1ccncc1)c1cc(Cl)c(Cl)cc1Cl | x | -0.9% | 2.1 | 5% | -9% | 6% | -5
COc1ccc(CNC(=O)c2cc(-c3ccc(OC)c(OC)c3)on2)cc1 | 2 | 0.0% | 0.5 | 11% | 11% | 17% | 2
COc1ccccc1NC(=O)Cc1noc(CSc2n[nH]c(N)n2)n1 | x | 1.1% | -0.6 | -15% | -10% | 21% | 4
Fc1ccc(N2CCN(c3cnc4ccccc4n3)CC2)cc1 | -2 | 0.8% | -1.8 | -13% | -5% | -13% | -6
O=C(CCC(=O)N1CCOc2ccccc21)NCCCN1CCCCC1 | 1 | -1.1% | 0.3 | 11% | 4% | 18% | -7
